Source: PubChem (several laboratories)
ABHD5-PLIN5 inh = blocks binding of human ABHD5 to perilipin-5. inhibition, % at 4 µM. Q00G26+Q8WTS1. AID 602281. Split G. princeps luciferase complementation, luminescence, 4 h. 360,000 compounds, 0.78% hits;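 active = inhibition above the mean inhibition across every tested compound plus 3 SD, cut at about 22% in these data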;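 also: 0% = DMSO only wells and the 100% control is not disclosed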
NOD2-RIPK2 inh = blocks binding of human NOD2 to RIPK2 | AID 624267 | inhibition, % at 4.98 µM | 360,000 compounds, 0.38% hits | O43353 | CHO BLA complementation NOD2-RIPK2, CCF4 ratio; in the data active = inhibition above about 21%;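 also: 0% = vehicle only and 100% = reference blocker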
Target sequence (O43353 whole entry, looked up): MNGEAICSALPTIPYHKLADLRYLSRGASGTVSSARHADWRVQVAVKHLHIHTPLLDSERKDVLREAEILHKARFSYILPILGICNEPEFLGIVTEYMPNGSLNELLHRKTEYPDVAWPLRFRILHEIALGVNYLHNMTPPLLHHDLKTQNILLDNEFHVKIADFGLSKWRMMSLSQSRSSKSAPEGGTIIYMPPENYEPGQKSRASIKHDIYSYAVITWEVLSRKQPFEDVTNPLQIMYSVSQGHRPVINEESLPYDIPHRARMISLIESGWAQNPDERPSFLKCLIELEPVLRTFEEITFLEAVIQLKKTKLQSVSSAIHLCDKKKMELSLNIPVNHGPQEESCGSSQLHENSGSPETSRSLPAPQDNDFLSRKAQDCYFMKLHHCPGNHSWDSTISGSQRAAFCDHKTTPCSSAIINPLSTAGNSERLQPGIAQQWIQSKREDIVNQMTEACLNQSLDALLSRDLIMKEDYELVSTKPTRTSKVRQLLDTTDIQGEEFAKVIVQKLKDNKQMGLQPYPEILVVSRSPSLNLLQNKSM
Exocytosis inh = lytic granule exocytosis inhibition; TALL-104 LAMP-1 surface exposure, flow cytometry; cells stimulated with thapsigargin and PMA; inhibition, % at 10 µM; 360,000 compounds, 0.66% hits; AID 651702;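 active = inhibition above about 55%, limit read from the data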
TLR9-MyD88 inh = TLR9-MyD88 interaction inhibition; Q9NR96+Q99836; 340,000 compounds, 0.21% hits; inhibition, % at 4.98 µM; CHO BLA complementation TLR9-MyD88, CCF4 FRET ratio;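 active = inhibition above the mean over all tested compounds plus 3 SD, cut at about 21% in these data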;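 also: 0% = DMSO only wells and 100% = clavulanate BLA inhibitor control wells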
TROY NFkB inh = blocks TROY-dependent signaling in reporter cells | Q293 LMP1-TROYcd NF-kB luciferase reporter, 4 h | inhibition, % at 10 µM | 360,000 compounds, 0.98% hits | AID 1347056;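 active = compounds whose plate-normalised and pattern-corrected inhibition of the luciferase reporter signal at the single screening dose is 50% or more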
* = called active by the depositor; . = not tested or not shown; & = joins results of further samples. The list is partial; the hit share may differ from the screen's.

Abbreviations: A = ABHD5-PLIN5 inh; B = NOD2-RIPK2 inh; C = Exocytosis inh; D = TLR9-MyD88 inh; E = TROY NFkB inh
1: CCN(CC)CC(=O)Nc1c(C)cccc1C
  A: -1&-2&0	B: 5&-16&-6	C: .	D: 7&-4&-3	E: 22&9&2

2: CC(=O)c1cn(Cc2ccccc2)c(=O)n(Cc2ccc(F)cc2)c1=O
  A: -3	B: 1	C: -5	D: 10	E: 7

3: CC[C@]12CCCN3CCc4c(n(c5ccccc45)C(=O)C1)[C@@H]32
  A: 0	B: 3	C: -6	D: 5	E: -3

4: Nc1ccn([C@@H]2O[C@H](CO)[C@@H](O)[C@H]2O)c(=O)n1
  A: -8	B: -7	C: -1	D: -13	E: 0

5: CCN(CC)S(=O)(=O)c1ccc(-c2nnc(SCC(=O)N3CCc4ccccc43)o2)cc1
  A: -2	B: -14	C: 13	D: 2	E: -20

6: O=C(c1ccccc1)N1CCN(Cc2ccccc2)CC1
  A: 2	B: -1	C: 2	D: 6	E: -11

7: CC(=O)C1CCC2C3CCC4CC(=O)CCC4(C)C3C=CC12C (stereo not given)
  A: 1	B: -9	C: -3	D: 0	E: -9

8: Cc1cn(Cc2ccccc2)c(=O)[nH]c1=O
  A: 3	B: -2	C: -1	D: 2	E: 11

9: CC[C@H]1CN2CCc3cc(OC)c(OC)cc3[C@@H]2C[C@@H]1C[C@H]1NCCc2cc(OC)c(OC)cc21
  A: 3	B: 24*	C: 0	D: 5	E: 86*

10: O=C(CCCN1CCC(C(O)c2ccc(F)cc2)CC1)c1ccc(F)cc1 (stereo not given)
  A: -5	B: 0	C: -16	D: .	E: 15

11: CN(C)CCCN1c2ccccc2Sc2ccc(C(F)(F)F)cc21
  A: 6	B: 3	C: 4	D: -7	E: 2

12: COc1cc(C2c3cc4c(cc3C(OC3OC5COC(c6cccs6)OC5C(O)C3O)C3COC(=O)C23)OCO4)cc(OC)c1O (stereo not given)
  A: 7	B: -7	C: -4	D: 9	E: -50

3 compounds already listed, sorted by SMILES length, highest first.
Abbreviations: A = ABHD5-PLIN5 inh; B = NOD2-RIPK2 inh; C = Exocytosis inh; D = TLR9-MyD88 inh; E = TROY NFkB inh
4: Nc1ccn([C@@H]2O[C@H](CO)[C@@H](O)[C@H]2O)c(=O)n1
  A: -8	B: -7	C: -1	D: -13	E: 0

10: O=C(CCCN1CCC(C(O)c2ccc(F)cc2)CC1)c1ccc(F)cc1 (stereo not given)
  A: -5	B: 0	C: -16	D: .	E: 15

6: O=C(c1ccccc1)N1CCN(Cc2ccccc2)CC1
  A: 2	B: -1	C: 2	D: 6	E: -11

Compound profiles, from the list above. Order of screens: ABHD5-PLIN5 inh	NOD2-RIPK2 inh	Exocytosis inh	TLR9-MyD88 inh	TROY NFkB inh
CC[C@]12CCCN3CCc4c(n(c5ccccc45)C(=O)C1)[C@@H]32 as listed: 0	3	-6	5	-3
COc1cc(C2c3cc4c(cc3C(OC3OC5COC(c6cccs6)OC5C(O)C3O)C3COC(=O)C23)OCO4)cc(OC)c1O (stereo not given) as listed: 7	-7	-4	9	-50

Entries listed above marked active in NOD2-RIPK2 inh:
item | canonical_smiles | ABHD5-PLIN5 inh | NOD2-RIPK2 inh | Exocytosis inh | TLR9-MyD88 inh
9 | CC[C@H]1CN2CCc3cc(OC)c(OC)cc3[C@@H]2C[C@@H]1C[C@H]1NCCc2cc(OC)c(OC)cc21 | 3 | 24* | 0 | 5

Copied from the list.
no. 10 in ABHD5-PLIN5 inh reads -5
no. 2 in TROY NFkB inh reads 7
no. 1 in ABHD5-PLIN5 inh reads -1&-2&0
